High-throughput results deposited in PubChem BioAssay by several laboratories.
RecA splice inh = blocks M. tuberculosis RecA intein splicing; P9WHJ3; inhibition, %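 (about 9 µM by stock and volumes)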; cell-free RecA intein splicing, fluorescence; 290,000 compounds, 0.75% hits; in the data active = inhibition above about 30%;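 note: 0% = vehicle wells and 100% = reference inhibitor control wells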
Target sequence (P9WHJ3 whole entry, looked up, canonical isoform): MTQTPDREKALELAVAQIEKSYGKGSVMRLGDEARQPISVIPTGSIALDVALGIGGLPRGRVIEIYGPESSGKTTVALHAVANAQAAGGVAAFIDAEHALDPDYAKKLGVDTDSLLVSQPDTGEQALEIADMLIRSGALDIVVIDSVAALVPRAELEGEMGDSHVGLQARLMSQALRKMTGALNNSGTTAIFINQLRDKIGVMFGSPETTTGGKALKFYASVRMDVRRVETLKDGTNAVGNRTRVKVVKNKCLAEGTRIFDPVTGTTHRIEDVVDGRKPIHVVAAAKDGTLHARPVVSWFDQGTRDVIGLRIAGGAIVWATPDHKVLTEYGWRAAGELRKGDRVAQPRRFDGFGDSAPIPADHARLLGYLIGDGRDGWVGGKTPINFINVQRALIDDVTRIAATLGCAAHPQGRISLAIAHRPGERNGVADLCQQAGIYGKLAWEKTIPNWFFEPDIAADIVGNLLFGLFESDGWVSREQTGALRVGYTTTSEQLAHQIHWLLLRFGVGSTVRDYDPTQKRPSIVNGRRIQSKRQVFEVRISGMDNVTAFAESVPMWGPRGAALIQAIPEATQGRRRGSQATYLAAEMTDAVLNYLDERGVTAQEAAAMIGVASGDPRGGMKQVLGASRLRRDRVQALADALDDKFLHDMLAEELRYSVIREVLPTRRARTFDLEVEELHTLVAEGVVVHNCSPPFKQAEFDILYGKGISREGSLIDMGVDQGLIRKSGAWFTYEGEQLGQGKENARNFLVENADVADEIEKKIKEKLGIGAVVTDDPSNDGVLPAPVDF
Mtb growth = M. tuberculosis H37Rv growth inhibitors, H37Rv strain (AID 1626); M. tuberculosis H37Rv growth inhibition; higher % means a stronger effect; 220,000 compounds, 0.95% hits; inhibition, % at 10 µM; hits with a dose series show IC50 in µM;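 active = confirmed in a dose series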;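 note: bacteria incubated seven days before Alamar blue readout; 0% = bacteria only wells and 100% = bacteria with antibiotic wells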
YopH PTP inh = YopH (Yersinia) phosphatase inhibition; fluorescence Ex485/Em525; inhibition, %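 (about 10 µM by stock and volumes)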; 140,000 compounds, 0.16% hits;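 active = inhibition of 50% or more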;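 note: controls were vehicle for no effect and minimum signal wells for full effect; inactives centre near -20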
Mtb bLac sens = beta-lactam sensitization of Mtb H37Rv | AID 434955 | inhibition, % at 25 µM | 330,000 compounds, 0.27% hits | M. tuberculosis H37Rv growth with meropenem, percent inhibition; hits of this screen are not shown here;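 active = about 74% or more and at least 40 points above the plate without the antibiotic, then above 30% in a dose series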;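 note: growth measured after seven days incubation then overnight dye step; 0% = bacteria only wells and 100% = bacteria with antibiotic; twin plates without the antibiotic show which effects depend on it; some results filed as inactive read as strong as hits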
Arbovirus inh = antivirals against arbovirus infection; arbovirus infection cell-based antiviral screen; inhibition, % at 10 µM; 200,000 compounds, 0.37% hits;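 active = inhibition from about 30%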;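 note: bluetongue infection of BSR cells; cell survival read as ATP light after 72 h; 0% = infected wells without compound and 100% = uninfected wells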
Arbovirus inh repeat = recorded beside Arbovirus inh, whose call it bears; inhibition, %; measured here: 10K subset replicate screen; many hits read low in the repeat;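 first of two repeat runs on a subset; 0% = infected and 100% = uninfected wells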
Active calls of the source: *; · = not tested or not shown.

SMILES | RecA splice inh | Mtb growth | YopH PTP inh | Mtb bLac sens | Arbovirus inh | others
Cn1c2c(c(=O)n(C)c1=O)C(NS(=O)(=O)c1ccccc1)(C(F)(F)F)C(=O)N2 (stereo not drawn) | 1.8 | -9% | -50 | -4 | 2
Cc1ccc(NS(=O)(=O)c2ccc(NC(=O)C3CCCO3)cc2)cc1 (stereo not drawn) | 7.3 | -5% | -14 | 8 | 5
CCC(=O)c1ccc(OCC(O)CN2C(=O)NC(C)(C)C2=O)cc1 (stereo not drawn) | -0.5 | -2% | 2 | -4 | 5 | Arbovirus inh repeat=4
Cc1cc(C)cc(NC(=O)C(OC(=O)c2cccs2)c2ccccc2)c1 (stereo not drawn) | 10 | -7% | -44 | -1 | 10
CCN1CCN(CCNC(=O)c2ccc(CS(=O)c3ccc(Cl)cc3)o2)CC1 (stereo not drawn) | 0.9 | · | · | -5 | ·
C[C@@H]1CN(C(=O)c2nc3ccc(Cl)cn3c2CN2CCc3sccc3C2)C[C@H](C)O1 | 2.2 | -2% | · | -6 | 1
CC(=O)c1ccc(N2CCN(C(=S)Nc3ccccc3F)CC2)cc1 | 3.7 | 3% | -33 | -2 | 9
Cc1ccc(N2CC(C(=O)NCc3ccc4c(c3)OCO4)CC2=O)cc1C (stereo not drawn) | -14 | -6% | 4 | -17 | -11
CCN(CC)c1ccc(C(=S)N2CCN(c3ccccc3)CC2)cc1 | 0.1 | 4% | -45 | -4 | -5
COCc1cc(C)[nH]c(=O)c1C(=O)NC12CC3CC(CC(C3)C1)C2 | 0.7 | -1% | · | 10 | 0
Cc1ccccc1NC(=O)CSc1nnc(CNC(=O)c2ccco2)n1C | 0.8 | · | · | -10 | ·
CC(=O)C1=C(C)NC(SCC(N)=O)=C(C#N)C1CC(C)C (stereo not drawn) | -5.0 | 1% | · | -5 | -1
COc1ccc(C(=O)NCCCNC(=O)c2cccnc2)cc1Br | 0.5 | · | · | -2 | ·
CCCCNC(=O)C1CC(=O)N(C2CCCC2)C1 (stereo not drawn) | 0.7 | -5% | -6 | -5 | 2
Cc1cc(=O)c2ccccc2n1Cc1ccccc1 | 2.5 | 5% | · | 72 | 5
O=C(COc1ccc(Cl)cc1Cl)NCCCNC(=O)c1cnccn1 | 1.2 | · | · | -2 | ·
Cc1ccccc1NC(=O)Cc1nc(COC(=O)c2ccc(Cl)nc2)cs1 | 0.1 | · | · | 12 | ·
COc1cccc(OCc2cc(C(=O)NCCc3cccc(C)n3)no2)c1 | 0.1 | · | · | 8 | ·
O=C(CNC(=O)N1CC(=O)Nc2ccccc21)NCc1cccc(Cl)c1 | 1.1 | · | · | -2 | ·
Cc1cccc(Nc2nc(N)nc(CN3CCC(C)CC3)n2)c1C | 1.3 | -3% | 6 | 31 | -3
Cc1onc(-c2ccccc2)c1C(=O)NC(C)c1ccc2c(c1)OCO2 (stereo not drawn) | -0.5 | · | · | -1 | ·
O=C1CC(N(CCc2ccccc2)C(=S)Nc2ccccc2)C(=O)N1c1ccccc1 (stereo not drawn) | 2.9 | 3% | -27 | -4 | -43
COc1cccc(C(=O)N/N=c2/oc3ccccc3cc2C(N)=O)c1 | 0.3 | · | · | -5 | ·
O=C(NC(=S)NCc1ccc(F)cc1)c1ccccc1 | 4.0 | 4% | -13 | -1 | 4
CCc1cc2c(=O)n(-c3ccc(C)cc3)cnc2s1 | 1.8 | 0% | -19 | 8 | 0
O=C(CCc1ccccc1)Nc1ccccc1C(F)(F)F | -2.0 | 3% | · | 0 | 1
COc1ccc(CN2CCC(=O)N([C@H](CO)c3ccccc3)CC2)cc1OC | -0.9 | · | · | -9 | ·
CC(Oc1ccc(F)cc1)C(=O)Nc1ccc2ccccc2c1 (stereo not drawn) | 3.0 | 15% | -7 | 29 | 9
Cc1ccc(NC(=O)CSc2nc3ncc(Br)cc3[nH]2)cc1C | -1.2 | · | · | 88 | ·
C/C(=N\NC(=O)c1nn(C)cc1Br)c1cccc(NC(=O)c2ccncc2)c1 | -0.4 | 7% | -26 | -3 | 10
CN(C(=O)C1CCCC1)C1CCS(=O)(=O)C1 (stereo not drawn) | 3.4 | · | · | -20 | ·
COCCNC(=O)CCc1ccc(S(=O)(=O)Nc2ccc(C)cc2)cc1 | -0.1 | 0% | 13 | · | 5
COc1ccccc1OCC(O)CN1CCN(C(=O)c2ccccc2)CC1 (stereo not drawn) | 1.8 | · | · | 5 | ·
CC(Sc1nc(-c2ccccc2)cc(C(F)(F)F)n1)C(=O)N1CCCCC1 (stereo not drawn) | · | -12% | -75 | 1 | 1
Cc1ccc([N+](=O)[O-])cc1N=C(c1cccc(Br)c1)N1CCOCC1 | 7.2 | -1% | -34 | 4 | -3
COc1ccc(-c2cc(-c3ccc(F)cc3)nc(N3CCN(C)CC3)n2)cc1 | 0.4 | 32% | -21 | 100 | 8
COc1ccc(NC(=O)N2CCCc3ccccc32)cc1 | -0.8 | 3% | -30 | 10 | 0
CCOC(=O)CNC(=S)N(Cc1ccccc1F)C1CCCCC1 | 2.9 | 0% | · | 4 | 1
C=CCN=C1S/C(=C/c2cccc([N+](=O)[O-])c2)C(=O)N1CC=C | 11 | 1% | · | 3 | ·
O=C(CSc1nccc(=O)[nH]1)NCc1ccc2c(c1)OCO2 | -4.6 | · | · | -1 | ·
Cc1cccc(C(=O)NCC(=O)N2CC(=O)Nc3ccccc32)c1 | -1.2 | 6% | · | -2 | 10
C=C(C)CN(CC)C(=O)CC1C(=O)NCCN1Cc1c(F)cccc1Cl (stereo not drawn) | -1.2 | 0% | · | -5 | 5
O=C(CSc1nnc(-c2ccc3c(c2)OCO3)n1-c1ccccc1)c1ccccc1 | 4.9 | -12% | -2 | -1 | 2
CC(=O)Nc1ccc(/C=N/Nc2nc3ccccc3s2)cc1 | -2.1 | -3% | · | · | ·
C[C@@H]1CCC(=O)N(C[C@@H](C)CC#N)CC1 | -5.3 | · | · | -2 | ·
O=C(O)C[C@H]1c2ccccc2S(=O)(=O)N1C1CCCCC1 | -0.4 | -15% | · | -6 | ·
Cc1ccsc1CNC1CCCCC1 | -1.0 | · | · | 6 | ·
O=C(Nc1ccncc1)Nc1cccc(Cl)c1 | 4.0 | · | · | -2 | ·
COc1ccc(OC)c(NC(=O)c2cccc(S(=O)(=O)N(Cc3ccccc3)c3ccccc3OC)c2)c1 | 5.7 | 6% | -22 | 0 | -1
Cc1ccc(CSc2nc3ccccc3c(=O)n2C)cc1 | -0.6 | · | · | 0 | ·

Next part; it opens with the five that closed the last part.
SMILES | RecA splice inh | Mtb growth | YopH PTP inh | Mtb bLac sens | Arbovirus inh | others
O=C(O)C[C@H]1c2ccccc2S(=O)(=O)N1C1CCCCC1 | -0.4 | -15% | · | -6 | ·
Cc1ccsc1CNC1CCCCC1 | -1.0 | · | · | 6 | ·
O=C(Nc1ccncc1)Nc1cccc(Cl)c1 | 4.0 | · | · | -2 | ·
COc1ccc(OC)c(NC(=O)c2cccc(S(=O)(=O)N(Cc3ccccc3)c3ccccc3OC)c2)c1 | 5.7 | 6% | -22 | 0 | -1
Cc1ccc(CSc2nc3ccccc3c(=O)n2C)cc1 | -0.6 | · | · | 0 | ·
Nc1nc(CN2CCC(Cc3ccccc3)CC2)nc(Nc2ccccc2)n1 | -2.0 | 74% | -13 | 55 | -11
COc1ccc(-c2nc3n(c(=O)c2C#N)CCS3)cc1OC | -0.6 | -10% | · | -4 | 1
CC(C)C(c1nnnn1C1CCCC1)N(C)C1CCCCC1 (stereo not drawn) | 0.6 | 0% | -12 | 4 | 3
CSc1ccccc1C(=O)NCc1ccccc1 | 1.9 | 5% | · | -1 | -1
Cc1cccc(NC(=O)CC2CCC2)c1 | 2.5 | -2% | 4 | -8 | -9
O=C(Nc1ncn[nH]1)c1ccc(S(=O)(=O)N2CCOCC2)cc1 | -3.1 | 2% | · | -3 | 0
c1ccc(C(c2nnnn2Cc2ccco2)N2CCN(c3nc4ccccc4s3)CC2)cc1 (stereo not drawn) | 7.6 | 9% | -20 | -3 | 18
O=C(NCc1ccco1)c1cc(-c2ccco2)on1 | -0.3 | 5% | -11 | -4 | -1
Cc1ccccc1OCCCCCNCCO | 1.6 | -3% | -45 | · | 2
COc1ccccc1N(CC(=O)N/N=C/c1ccccc1C(=O)O)S(C)(=O)=O | 0.0 | -6% | · | 0 | ·
O=[N+]([O-])c1ccc(-n2nnnc2-c2ccccc2)cc1 | -0.3 | 2% | · | 10 | 4
CCOc1ccc(N=C2SCCCN2C(=O)c2c(CC)noc2C)cc1 | 1.8 | · | · | 22 | ·
Cc1nnc(SCc2cn3ccsc3n2)n(N)c1=O | 1.7 | 8% | 24 | -21 | 2
CCC1Nc2ncnc(N3CCN(c4ccccc4)CC3)c2N(Cc2ccc(OC)cc2)C1=O (stereo not drawn) | 9.8 | · | · | 57 | ·
COc1cc(C2NC(=O)NC(O)(C(F)(F)F)C2C(=O)c2ccc(Cl)cc2)ccc1O (stereo not drawn) | · | -18% | -23 | 17 | -4
O=C(COc1ccc(Br)cc1Cl)NCCCN1CCOCC1 | -1.1 | · | · | 6 | ·
COC(=O)C1(NC(=O)NC23CC4CC(CC(C4)C2)C3)CCCCC1 | 2.2 | -2% | · | 2 | 0
O=C(CN(Cc1ccccc1Cl)C(=O)Cn1nnc(-c2cccs2)n1)NCC1CCCO1 (stereo not drawn) | 7.1 | -5% | -35 | 8 | 1
COC(=O)c1c(CSc2ccc(C)c(C)c2)noc1C(=O)NCc1ccc(OC)cc1 | 1.9 | 8% | -27 | -2 | 3
COc1ccc(C(=O)OCC(N)=O)cc1[N+](=O)[O-] | -1.6 | -3% | -16 | -3 | -7
Cc1cc(=O)oc2ccc(OCC(=O)N3CCC(C)CC3)cc12 | 2.1 | -5% | -29 | 0 | -3
OCCSc1ncnc2c1oc1ccccc12 | -2.5 | 1% | -33 | 4 | 7
Cn1c(Cn2cnc([N+](=O)[O-])n2)nnc1SCC(=O)Nc1ccccc1 | 0.7 | 5% | -10 | -3 | -9
COc1cc(C(=O)Nc2ccccc2C2COC(=O)C2=N)cc(OC)c1OC (stereo not drawn) | 1.9 | 2% | 9 | -11 | 9
Cc1cccc(NC(=O)CSc2nnc(-c3ccco3)c(-c3ccco3)n2)c1 | · | -14% | · | · | -7
CCOc1ccc2[nH]cc(S(=O)(=O)c3ccc(F)cc3)c(=O)c2c1 | -1.0 | -1% | -64 | -5 | -5 | Arbovirus inh repeat=0
CCOc1ccc2c(c1)C(C)=CC(C)(C)N2S(=O)(=O)c1ccc(NC(C)=O)cc1 | 4.9 | · | · | -5 | ·
COc1ccccc1N(Cc1cc(=O)[nH]c2ccccc12)C(=O)c1ccccc1 | 2.8 | 3% | · | -6 | ·
CCn1cc(CCCC(=O)NCc2ccccc2OC)c2ccccc21 | 6.4 | · | · | 6 | ·
N#C/C(=N\Nc1cccc(C(F)(F)F)c1)C(=O)c1csc(-c2cccnc2)n1 | -1.5 | -3% | · | 10 | ·

Pulled one by one from the entries so far:
SMILES | RecA splice inh | Mtb growth | YopH PTP inh | Mtb bLac sens | Arbovirus inh | others
CCn1cc(CCCC(=O)NCc2ccccc2OC)c2ccccc21 | 6.4 | · | · | 6 | ·
OCCSc1ncnc2c1oc1ccccc12 | -2.5 | 1% | -33 | 4 | 7

(next part)
SMILES | RecA splice inh | Mtb growth | YopH PTP inh | Mtb bLac sens | Arbovirus inh | others
O=C(c1cc2sccc2n1Cc1ccc(F)cc1)N1CCCc2ccccc21 | 11 | -7% | -12 | 1 | 5
O=C(CNc1cccc(Cl)c1)NNC(=S)NCc1ccccc1 | 3.2 | -1% | · | 10 | 3
Nc1cc(N)cc(-c2nc3ccccc3o2)c1 | · | 53% | · | 2 | 0 | Arbovirus inh repeat=-1
CNC(=S)N(CCN(C)C)Cc1cc2cc3c(cc2[nH]c1=O)OCO3 | -1.6 | · | · | -6 | ·
COc1ccc(C(C)C)cc1S(=O)(=O)N1CCC(C(=O)NCC2CCCO2)CC1 (stereo not drawn) | 0.8 | · | · | 3 | ·
CC(=O)c1cc(-c2ccccc2)n(CC(=O)N2CCC(C)CC2)c1C | -0.8 | 4% | -36 | -2 | -8
O=C(Nc1ccc(Oc2ccc(S(=O)(=O)N3CCOCC3)cn2)cc1)c1ccco1 | 1.7 | -3% | -33 | 10 | -12
CCOC(=O)c1cc(-c2ccc(C)cc2)n(CCC(=O)NCCN(C)C)c1C | -0.4 | -1% | -30 | · | -13
O=C(c1ccccc1NS(=O)(=O)c1ccc(F)cc1)N1CCCC1 | 2.0 | 6% | -16 | 0 | 0

Some of these compounds in order of molecular weight, rising:
SMILES | RecA splice inh | Mtb growth | YopH PTP inh | Mtb bLac sens | Arbovirus inh | others
CC(C)C(c1nnnn1C1CCCC1)N(C)C1CCCCC1 (stereo not drawn) | 0.6 | 0% | -12 | 4 | 3
Cc1ccc(NS(=O)(=O)c2ccc(NC(=O)C3CCCO3)cc2)cc1 (stereo not drawn) | 7.3 | -5% | -14 | 8 | 5
C[C@@H]1CN(C(=O)c2nc3ccc(Cl)cn3c2CN2CCc3sccc3C2)C[C@H](C)O1 | 2.2 | -2% | · | -6 | 1

Some of the compounds tested (hit frequency here may not be typical).
